# D2 potentiator = Beta-Arrestin HTS for Positive Allosteric Modulators of the Human D2 Dopamine Receptor: Potentiators. D(2) dopamine receptor (Homo sapiens), P14416. DiscoveRx D2 beta-arrestin cells, luminescence, 90 min; 100% = 57 uM dopamine signal. potentiation, % (no concentration beside the values). 0.23% of 360,000 active. AID 624464, 2012; active = potentiation of 50% or more; inconclusive = 30% to 50%; inactive = 30% or less;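 also: compound concentration not given in the record; tested on top of an EC20 dose of dopamine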
# Target sequence (P14416 whole entry, looked up): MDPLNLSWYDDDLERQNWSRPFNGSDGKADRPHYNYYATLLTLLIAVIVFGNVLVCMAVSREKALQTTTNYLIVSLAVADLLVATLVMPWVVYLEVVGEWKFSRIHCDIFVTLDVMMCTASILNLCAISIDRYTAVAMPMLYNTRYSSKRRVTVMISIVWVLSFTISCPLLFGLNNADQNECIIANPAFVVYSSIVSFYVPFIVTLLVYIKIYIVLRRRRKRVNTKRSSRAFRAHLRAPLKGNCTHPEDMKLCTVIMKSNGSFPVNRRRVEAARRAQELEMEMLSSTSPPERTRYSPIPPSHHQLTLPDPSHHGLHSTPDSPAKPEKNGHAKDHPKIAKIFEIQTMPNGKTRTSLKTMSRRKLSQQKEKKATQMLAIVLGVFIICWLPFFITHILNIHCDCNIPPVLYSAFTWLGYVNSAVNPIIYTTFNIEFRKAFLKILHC
#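 PathHunter beta-arrestin assay in DiscoveRx D2 cells. Compounds were added with an EC20 of dopamine (50 nM final) for 90 min at 37 deg C. Luminescence was read 1 h after detection reagent, with 57 uM dopamine as the EC100 control.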
# TRPML1 ag = qHTS for Agonists of the Human Mucolipin Transient Receptor Potential 1 (TRPML1); Mucolipin-1 (Homo sapiens), Q9GZU1; TRPML1-expressing cells, Ca2+ dye fluorescence, FDSS; host cell line not named in the record; reference of the full effect not given here; activation, % (no concentration beside the values); 0.12% of 410,000 active; AID 624414, 2012; in the data active = activation above about 50%; inconclusive = about 30% to 50%; inactive = below about 30%; also: 0% is about no effect; the text of the record puts the active cut at 80%
# Target sequence (Q9GZU1 whole entry, looked up): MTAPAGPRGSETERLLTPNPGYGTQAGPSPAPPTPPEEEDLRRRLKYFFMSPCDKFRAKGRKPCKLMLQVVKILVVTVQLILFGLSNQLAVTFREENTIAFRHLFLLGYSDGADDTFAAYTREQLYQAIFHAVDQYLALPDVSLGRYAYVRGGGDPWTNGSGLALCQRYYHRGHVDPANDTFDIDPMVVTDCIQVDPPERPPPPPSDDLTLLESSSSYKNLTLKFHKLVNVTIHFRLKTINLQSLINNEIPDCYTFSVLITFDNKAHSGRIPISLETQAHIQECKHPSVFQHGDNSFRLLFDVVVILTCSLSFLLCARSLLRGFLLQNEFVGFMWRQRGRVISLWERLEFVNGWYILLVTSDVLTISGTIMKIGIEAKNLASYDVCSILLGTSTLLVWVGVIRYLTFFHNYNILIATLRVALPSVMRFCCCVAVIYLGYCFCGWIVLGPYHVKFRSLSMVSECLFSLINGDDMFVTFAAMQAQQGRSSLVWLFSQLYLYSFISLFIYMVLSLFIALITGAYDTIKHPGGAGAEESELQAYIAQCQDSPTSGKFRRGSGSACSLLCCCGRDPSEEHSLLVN
#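 Agonist activity was taken from a 110 s kinetic Ca2+ dye read on the FDSS after pinning compounds onto TRPML1-DL cells. The cells were seeded at 1,500/well with Tet inducer, incubated about 16 h, then dye-loaded at room temperature.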
# PINK1 expr mod = A Quantitative High throughput Screen to Identify Chemical Modulators of PINK1 Expression. PINK1 immunofluorescence, high-content cytometry, 24 h. Potency, µM (titrated, usually from 76.6 µM), inactives show at the top dose activation (PINK1 increase), actives largely listed as activators. 0.2% of 410,000 active. AID 624263, 2012; active = well fitted activation curve with a large enough effect; inconclusive = small, poorly fitted or top-dose-only effect; inactive = flat fitted curve, though single readings scatter; cell line not stated here;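 also: potency is read from the fitted curve at half-maximal effect; % of control where 0% means no effect; nearly all actives have a fitted effect of over 65% in size; a mitochondrial uncoupler was the plate control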
#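 PINK1 protein level read as immunofluorescence by microplate cytometer in a fixed, stained stable cell line after 24 h exposure to five compound concentrations, with CCCP as control.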
# D2 agonist = Beta-Arrestin HTS for Positive Allosteric Modulators of the Human D2 Dopamine Receptor: Agonists; D(2) dopamine receptor (Homo sapiens), P14416; DiscoveRx PathHunter D2 beta-arrestin, luminescence, 90 min; 100% = 57 uM dopamine signal; activation, % (test concentration not listed); 0.084% of 360,000 active; AID 624465, 2012; in the data active = activation above about 40%; inconclusive = about 15% to 40%; inactive = below about 15%; also: compound concentration not given in the record; the text of the record calls up to 30% inactive
#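 Agonist mode: compounds alone added to overnight-plated D2 PathHunter cells for 90 min at 37 C, with 57 uM final dopamine (EC100) defining full response. Beta-arrestin recruitment detected by chemiluminescent reagent, read after 1 h at ambient temperature.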
# Six1-Eya2 inh = qHTS Assay for Inhibitors of the Six1/Eya2 Interaction; activity change, % (no concentration beside the values); 0.56% of 360,000 active; AlphaScreen GST-Six1/His-Eya2 binding, biochemical; active compounds read low; control for the full effect not named in the record; Homeobox protein SIX1 (Homo sapiens) + Protein phosphatase EYA2 (Homo sapiens), …; in the data active = activity change below about -65%; inconclusive = about -30% to -65%; inactive = above about -30%; also: % is scaled to controls: 0 for no effect and ±100 for the full control effect
#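 AlphaScreen with GST-Six1 and His-Eya2 (5X mix: 250 nM and 500 nM), glutathione donor and nickel acceptor beads; buffer 50 mM Tris pH 8.0, 300 mM NaCl, 1 mM TCEP; 1 h at 37 C in the dark.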
# CtBP-E1A blk = qHTS Assay for Inhibitors of the CtBP/E1A Interaction; activity change, % (test concentration not listed); 0.49% of 340,000 active; AlphaScreen GST-E1A/His-CtBP binding, 1536-well; active compounds read low; control for the full effect not named in the record; AID 651724, 2012; CtBP / adenovirus E1A interaction (AlphaScreen); in the data active means activity change below about -65%; inconclusive means about -30% to -65%; inactive means above about -30%; also: % is scaled to controls: 0 for no effect and ±100 for the full control effect
#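 Steps: dispense buffer (Tris pH 8.0, NaCl 300 mM, TCEP 1 mM, BSA, Tween 20); add 5X protein mix (GST-E1A, His-CtBP, 125 nM each); pin 23 nL compound; 2 h at 37 °C, dark; add 5X beads (50 ug/mL); 1 h; read.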
# Active calls of the source: *; ? = inconclusive; . = no result given; & = joins results of further samples; [ ] = another dose, or the depositor's remark.
SMILES,D2 potentiator,TRPML1 ag,PINK1 expr mod,D2 agonist,Six1-Eya2 inh,CtBP-E1A blk
CCCOc1ccc(NC(=O)C2CC(=O)N/C(=N/N=C(\C)CCc3ccc4c(c3)OCO4)S2)cc1 (configuration not stated),-2,3.2,8.1%,3.8,-14,-2
O=C(Cc1cccc([N+](=O)[O-])c1)Nc1cccc(C(=O)N2CCCC2)c1,-7,0.9,0.8%,-2.2,0,0
CN=C(C)/C(C(=O)OC)=C(/O)c1c(F)cccc1F,-5,1.8,0.1%,-2.8,5,7
O=C(NCC1CCCO1)C(c1cccs1)N(C(=O)c1ccc(-c2ccccc2)[nH]1)C1CCCC1 (configuration not stated),-29,0.0,-1.4%,-2.5,-19,-18
O=C(O)Cn1c(-c2ccccc2)cc2ccccc21,0,0.2,1.5%,-0.8,3,5
Cc1nccn1-c1ccc(C(F)(F)F)cc1NC=O,-1,-0.3,-2.2%,-3.4,5,1
COc1ccc(/C(C#N)=C/c2c(-c3ccc(Cl)cc3)nc3c(C)cccn23)cc1,-2,-0.2,1.1%,-3.2,2,-1
Cc1ccc(-n2nc3c(c2NC(=O)c2ccc4c(c2)OCO4)CS(=O)C3)cc1 (configuration not stated),-7,0.6,6.9%,-3.7,-5,0
Cc1cc(NC(=O)CCC(=O)N(Cc2ccco2)C2(C(=O)NC3CCCC3)CCCCC2C)no1 (configuration not stated),-2,2.1,0.3%,2.8,8,1
CCN(CC)C(=O)/C(=C/c1cccc([N+](=O)[O-])c1)NC(=O)c1ccco1,-6,0.2,2.6%,-3.1,6,-1
O=C(N/C(=C\c1ccc(Br)cc1)C(=O)N1CCOCC1)c1ccco1,-12,1.1,-0.1%,-6.1,10,18
Cc1cccnc1NC(=O)c1ccc(S(=O)(=O)N2CCCC2)cc1,-10,-0.3,2.7%,-4.2,12,-16
COc1ccccc1NC(=O)N1CCN(CCc2ccccc2)CC1,-21,-0.4,0.3%,-1.2,3,2
COc1ccccc1NC(=O)Cn1cc(C#N)c2ccccc21,-10,2.1,7.7%[38.3 µM],-1.4,-1,4
CCCCCCc1c(O)nc(SCCN2CCOCC2)[nH]c1=O,-2,-0.3,0.0%,-0.6,-1,-4
O=C1CSC(c2ccc([N+](=O)[O-])cc2)N1c1ccccc1 (configuration not stated),4,0.8,0.4%,2.4,5,0
CCCCN1CCC(=O)NC1=O,-5,-0.5,1.4%,-2.0,-21,-3
CCOC(=O)C1(CCCc2ccccc2)CCN(C(=O)CCCn2cncn2)CC1,-5,0.8,-2.0%,-1.3,0,0
Cc1ccc(Cn2nnc3c(=O)[nH]c(C4CCCN(C(=O)Nc5ccc(F)cc5)C4)nc32)cc1 (configuration not stated),-9,0.8,?,0.7,0,6
CC(C)CC(NC(=O)/C(=C\c1ccco1)NC(=O)c1ccco1)C(=O)O (configuration not stated),0,0.1,0.1%,-5.3,-6,11
O=[N+]([O-])c1ccc(O)c(/C=N/n2cnnc2)c1,-24,0.2,-1.0%,-10.0,-10,-8
Cc1ccc(N=Cc2cc3c(cc2O)OC(N)=C(C#N)C3c2ccccc2)cc1 (configuration not stated),-1,1.6,-1.6%,6.6,-8,13
CCOC(=O)c1[nH]ncc1CN1CCCC(C(=O)c2ccc(SC)cc2)C1 (configuration not stated),-12,0.8,0.4%,-1.7,-9,-9
COc1ccc(-c2ccc(C(=O)NCc3cccs3)c3occc23)c(C)c1,-11,1.3,2.0%,-4.6,1,6
CCCCC(O)(CCCC)C(=O)NN(C(=O)c1cccnc1Cl)c1ccccc1,-2,-0.6,-0.9%,-0.8,-17,3
# Following part
SMILES,D2 potentiator,TRPML1 ag,PINK1 expr mod,D2 agonist,Six1-Eya2 inh,CtBP-E1A blk
C/C(=N\NC(=O)C1=NNC(=O)C1C)c1cccs1 (configuration not stated),1,-0.7,-1.0%,-0.5,22,.
COc1cc(C#N)ccc1OCC(=O)Nc1cccc(S(=O)(=O)N(C)c2ccccc2)c1,-6,0.7,0.5%,9.0,-5,-5
COc1ccc(C(=O)Nc2cc3c(oc2=O)CCCC3=O)cc1,-1,0.7,-0.7%,-5.7,-25,-12
CC1(C(=O)NS(=O)(=O)c2ccc(Cl)cc2)CCN1C(=O)C1(c2ccc(Cl)cc2)CCC1 (configuration not stated),-7,-1.0,0.3%,1.3,1,2
O=C(CNC(=O)c1ccccc1)OCC(=O)c1c[nH]c2ccccc12,-2,3.0,-1.2%,4.1,-1,2
COc1ccc(OC)c(-n2nnnc2SCC(=O)Nc2ccc3c(c2)OCCO3)c1,-9,1.5,.,3.8,7,2
CC(C)OC(=O)c1ccc(S(N)(=O)=O)o1,-9,-0.6,-0.6%,-0.6,16,2
Cc1nn(C)c(Oc2ccccc2)c1CCNS(=O)(=O)c1ccc(F)cc1,-2,-0.3,0.8%,-2.5,3,4
O=C(NN=Cc1ccc2c(c1)OCO2)C1CC1,-2,0.7,3.1%,-2.0,-4,1
CC1=CC(c2ccc(Cl)cc2)n2nc(NC(=O)CCC(=O)O)nc2N1 (configuration not stated),-6,0.0,-0.2%,-4.3,-20,-24
O=C(COc1nncc2ccccc12)Nc1c(F)c(F)c(F)c(F)c1F,3,0.8,3.2%,-2.2,7,-1
COCOCCn1cc(CN2CCS(=O)(=O)N(Cc3ccc(-c4ccncc4)cc3)C(C(C)C)C2=O)nn1 (configuration not stated),-2,-0.5,1.0%,-4.2,3,1
C/C(=N\NC(=O)CSc1nc2ccccc2o1)c1ccc(O)cc1,2,3.2,1.0%,8.1,0,-11
O=C(NCCC1=CCCCC1)c1ccc(Br)o1,-16,-1.0,0.5%,0.6,-1,4
NC(=O)COc1ccc(-c2noc(COc3ccccc3[N+](=O)[O-])n2)cc1,-2,0.8,1.6%,-2.7,-4,.
COc1ccc(-c2nnc(SCC(=O)N(C)C3CCS(=O)(=O)C3)n2N)cc1OC (configuration not stated),-2,0.5,2.5%,-5.2,3,.
O=C1c2ccccc2NC2CCCCC12 (configuration not stated),-8,0.4,.,-0.9,3,6
Cc1cc(C)c(NC(=O)COC(=O)CSc2ccc(Br)cc2C)c(C)c1,3,4.0,3.5%,0.0,6,8
COc1ccccc1C1/C(=C(/O)c2ccc(Cl)cc2)C(=O)C(=O)N1CCN1CCOCC1 (configuration not stated),-5,0.2,4.9%,2.3,14,-2
COc1ccc(CCNC(=O)CSc2nc3[nH]c(=O)cc(O)c3s2)cc1,-7,0.0,0.9%,-1.2,8,.
COc1ccc(Br)cc1C1CC(=O)N2CN(Cc3ccccc3)CSC2=C1C#N (configuration not stated),2,0.2,4.1%,1.4,-1,2
C[C@H](CO)N1C[C@H](C)[C@@H](CN(C)C(=O)Nc2ccccc2)Oc2ccc(NC(=O)Nc3ccc4c(c3)OCO4)cc2C1=O,-1,-0.8,0.0%,-0.3,?,-65*
COc1ccc(C2c3ccc(O)cc3Oc3ncn(CCCO)c(=N)c32)cc1 (configuration not stated),0,0.3,2.2%,1.1,4,1
COc1ccccc1/C=N/N1C(=O)c2cccc3cccc(c23)C1=O,-7,-1.0,1.0%,-5.8,-2,0
COc1ccc(CNC(=O)C2CCCN(S(=O)(=O)c3ccc(F)cc3)C2)cc1 (configuration not stated),20,0.4,2.1%,-1.4,-3,7
# Continued.
SMILES,D2 potentiator,TRPML1 ag,PINK1 expr mod,D2 agonist,Six1-Eya2 inh,CtBP-E1A blk
O=C(Nc1c(-c2ccc3c(c2)OCO3)[nH][nH]c1=O)c1cccc(C(F)(F)F)c1,-15,-0.1,0.7%,-4.7,10,29
CCC(Oc1ccccc1F)C(=O)Nc1ccc2c(c1)n(C)c(=O)n2C (configuration not stated),-3,0.3,4.9%,-4.3,9,1
O=C(CSc1nnc(C2CC2)n1C1CC1)c1cccs1,2,2.0,0.5%,6.9,2,2
Cc1ccc(S(=O)(=O)Nc2ccc3nc(C)sc3c2)c(C)c1,-9,0.4,0.6%,-5.5,6,6
CCCSCCCNC(=O)CN1C(=O)COc2ccc(S(=O)(=O)N3CCCC3)cc21,-1,-1.4&-0.7,-0.3%&0.8%,-0.2,3,3
CC(=O)[C@@]1(O)CCC2C3C=CC4=CC(=O)CC[C@]4(C)C3CC[C@@]21C (some centres not stated),4,-0.5,-1.0%,-0.6,-1,.
COc1ccc(Cl)cc1Nc1nc(-c2sc(NC(=O)C(C)(C)C)nc2C)cs1,-13,-0.8,3.6%,-0.9,-6,-2
N/C(Cc1ccc(Cl)cc1)=N\OC(=O)c1ccc2ccccc2c1,168*,1.2,-0.2%,?,9,12
Cc1ccc(S(=O)(=O)NC2CCOC(C)(C)C2)cc1 (configuration not stated),-2,-0.9,1.1%,1.6,3,-3
CCCc1nc(NC(C)=O)c(C#N)c(-c2ccco2)c1CC,0,3.4,2.0%[38.3 µM],-0.9,0,-3
COc1ccc(N2C(=O)C3CCCN3C2c2cc(OC)c(OC)cc2OC)cc1 (configuration not stated),3,0.1,3.2%,-3.8,9,6
Cc1cc(-c2nnc(CCC(=O)NCc3ccc(OC(F)(F)F)cc3)o2)no1,-4,-0.9,4.5%,-0.9,3,17
COc1ccc([C@@H]2CC=C(C(=O)O)[C@H](c3ccc(Cl)cc3)N2S(=O)(=O)c2ccc(Cl)cc2)cc1,-5,-0.4,-0.3%,-2.6,8,-1

# Part of the list above, reformatted:
smiles | D2 potentiator | TRPML1 ag | PINK1 expr mod | D2 agonist | Six1-Eya2 inh | CtBP-E1A blk
Cc1ccc(S(=O)(=O)Nc2ccc3nc(C)sc3c2)c(C)c1 | -9 | 0.4 | 0.6% | -5.5 | 6 | 6
CCCSCCCNC(=O)CN1C(=O)COc2ccc(S(=O)(=O)N3CCCC3)cc21 | -1 | -1.4&-0.7 | -0.3%&0.8% | -0.2 | 3 | 3
CC(=O)[C@@]1(O)CCC2C3C=CC4=CC(=O)CC[C@]4(C)C3CC[C@@]21C (some centres not stated) | 4 | -0.5 | -1.0% | -0.6 | -1 | .
COc1ccc(Cl)cc1Nc1nc(-c2sc(NC(=O)C(C)(C)C)nc2C)cs1 | -13 | -0.8 | 3.6% | -0.9 | -6 | -2
N/C(Cc1ccc(Cl)cc1)=N\OC(=O)c1ccc2ccccc2c1 | 168* | 1.2 | -0.2% | ? | 9 | 12
Cc1ccc(S(=O)(=O)NC2CCOC(C)(C)C2)cc1 (configuration not stated) | -2 | -0.9 | 1.1% | 1.6 | 3 | -3
CCCc1nc(NC(C)=O)c(C#N)c(-c2ccco2)c1CC | 0 | 3.4 | 2.0%[38.3 µM] | -0.9 | 0 | -3
COc1ccc(N2C(=O)C3CCCN3C2c2cc(OC)c(OC)cc2OC)cc1 (configuration not stated) | 3 | 0.1 | 3.2% | -3.8 | 9 | 6
Cc1cc(-c2nnc(CCC(=O)NCc3ccc(OC(F)(F)F)cc3)o2)no1 | -4 | -0.9 | 4.5% | -0.9 | 3 | 17

# High-throughput results from PubChem.
